Source: PubChem (several laboratories)
RanGTP-Imp inh – inhibitors of RanGTP-importin-beta interaction, primary screen, biochemical, FRET, CFP-Ran, YFP-importin-beta, homogeneous | 1.1% of 300,000 active | cell-free CFP-Ran/YFP-importin-beta FRET ratio | inhibition, % (test concentration not listed);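 active means most replicates above 15%; inconclusive means exactly half above 15%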;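 further: 0% = DMSO wells and 100% = Ran loaded with GDP instead of GTP; wells of about 40 µL received 100 nL stock; the first replicate is given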
ALR H2O2 inh – inhibitors of human ALR sulfhydryl oxidase, primary screen, biochemical, H2O2 detection, HRP-luminol luminescence, single point; FAD-linked sulfhydryl oxidase ALR (Homo sapiens), P55789; purified ALR, DTT oxidation; inhibition, % (concentration not given with the values); 3.8% of 290,000 active; AID 485317, 2010;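 active means mean and each replicate at 75% or more; inconclusive means only one of the two met; inactive means neither met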;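 further: stock transfer was 7.5 nL into about 7.5 µL; 0% = neutral wells and 100% = wells with inactivated enzyme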
Target sequence (P55789 whole entry, looked up): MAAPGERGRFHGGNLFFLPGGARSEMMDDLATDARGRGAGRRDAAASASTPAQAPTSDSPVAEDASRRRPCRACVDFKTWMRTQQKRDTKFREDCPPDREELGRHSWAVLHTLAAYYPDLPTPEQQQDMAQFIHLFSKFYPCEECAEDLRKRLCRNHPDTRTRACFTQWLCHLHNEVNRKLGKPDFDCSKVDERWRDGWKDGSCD
Vif A3G – inhibitors of Vif binding to APOBEC3G peptide, primary screen, biochemical, TR-FRET, GST-Vif 1-94, biotin-A3G peptide, dose response retest (AID 1117319) | Virion infectivity factor (Human immunodeficiency virus type 1 group M subtype B (isolate … | TR-FRET GST-Vif / biotin-A3G peptide binding; higher % means a stronger effect; test concentration not given here; strong numbers were not always called active | inhibition, %; hits with a dose series show IC50 in µM | 0.57% of 260,000 active;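 active means above the screen mean plus three standard deviations and confirmed in dose response; inconclusive means results disagree or hit not tested in dose response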;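 further: Vif residues 1-94 fused to GST binding biotinylated APOBEC3G peptide 110-148; 0% = full assay without inhibitor and 100% = GST in place of GST-Vif; retest series ran down from 100 µM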
Beta2AR agonist – beta2AR agonists driving receptor internalization, primary screen, cell-based, FAP fluorogen, flow cytometry | Beta-2 adrenergic receptor (Homo sapiens), P07550 | Am2.2-beta2AR cells; reference of the scale not given here | response, % (test concentration not listed) | 0.43% of 340,000 active | AID 504454, 2011;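 active means response above a set limit, near 3 SD of response in nonfluorescent compounds, cut at about 42% in these data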;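 further: stock transfer was 100 nL into about 11 µL; a reference agonist was the positive control; negative values mostly stem from fluorescent compounds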
Target sequence (P07550 whole entry, looked up): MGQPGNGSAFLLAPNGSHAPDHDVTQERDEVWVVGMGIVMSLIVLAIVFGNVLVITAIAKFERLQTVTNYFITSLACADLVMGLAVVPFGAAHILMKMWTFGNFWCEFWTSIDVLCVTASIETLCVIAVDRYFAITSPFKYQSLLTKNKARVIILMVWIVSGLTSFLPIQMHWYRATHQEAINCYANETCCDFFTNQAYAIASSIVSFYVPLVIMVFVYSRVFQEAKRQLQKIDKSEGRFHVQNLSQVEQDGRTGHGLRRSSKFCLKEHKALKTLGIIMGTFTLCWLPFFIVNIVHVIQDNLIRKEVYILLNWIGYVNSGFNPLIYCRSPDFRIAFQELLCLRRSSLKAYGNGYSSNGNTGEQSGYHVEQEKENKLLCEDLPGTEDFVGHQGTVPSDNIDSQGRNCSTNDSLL
LANA-H2B inh – blockers of LANA interaction with H2A/H2B – biochemical, FP readout, HTS, primary screen; cell-free LANA-H2A/H2B peptide, fluorescence polarization; AID 2629, 2010; 0.6% of 320,000 active; Protein LANA1 (Human herpesvirus 8 type P (isolate GK18)), Q9QR71; inhibition, % (test concentration not listed); in the data active means inhibition mostly above about 10%, no sharp cut-off; inactive means mostly below about 6.7%;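 further: stock transfer was 7.5 nL into about 10 µL; 0% = median of vehicle wells and 100% = median of positive control wells; one replicate is shown; the record names a cut of 25% in any replicate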
HNF4A DNA FP – change in binding of human HNF4A to DNA, primary screen, biochemical, fluorescence polarization, FITC-DNA; Hepatocyte nuclear factor 4-alpha (Homo sapiens), P41235; 1 h; activity change, % at 10 µM; 0.3% of 360,000 active; AID 1224865, 2016; in the data active means activity change above about 30%, passing the limit was not always enough;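 further: controls were the assay level and a saturating level of protein; the project sought stronger binding though the title names inhibitors; some compounds called inactive have numbers as strong as hits; positive values seem to mean higher polarization but the record does not say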
Target sequence (P41235 whole entry, looked up): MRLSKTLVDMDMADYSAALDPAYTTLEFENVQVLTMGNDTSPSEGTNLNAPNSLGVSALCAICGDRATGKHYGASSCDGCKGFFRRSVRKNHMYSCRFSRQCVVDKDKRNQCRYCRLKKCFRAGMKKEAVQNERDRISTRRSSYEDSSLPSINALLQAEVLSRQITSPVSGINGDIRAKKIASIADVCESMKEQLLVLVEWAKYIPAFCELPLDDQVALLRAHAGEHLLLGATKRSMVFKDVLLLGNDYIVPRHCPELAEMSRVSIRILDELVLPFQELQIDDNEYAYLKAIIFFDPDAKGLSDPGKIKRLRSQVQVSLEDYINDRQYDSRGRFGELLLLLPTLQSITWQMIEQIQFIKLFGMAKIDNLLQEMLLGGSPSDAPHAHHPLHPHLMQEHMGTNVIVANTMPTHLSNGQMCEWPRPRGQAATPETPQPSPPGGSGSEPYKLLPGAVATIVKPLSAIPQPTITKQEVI
Calb FLC – C. albicans growth inhibition with fluconazole, primary screen, CaCi-2 strain, Alamar Blue fluorescence; C. albicans CaCi-2 (fluconazole-resistant clinical isolate) + fluconazole, 48 h; growth inhibition, % (concentration not given with the values); 0.57% of 300,000 active;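 active means most replicates above 75%; inconclusive means exactly half above 75%; inactive means most below 75%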;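 further: all wells also contain fluconazole at 8 µg/ml as a sub-toxic cotreatment; 0% = median of DMSO wells and 100% = median of geldanamycin control wells; wells of about 8 µL received 7.5 nL stock; the first replicate is given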
Active calls of the source: *; ? = inconclusive; · = no result given; & = joins results of further samples. The order is random; 6.3% or so of the library scored in one or more.

SMILES	RanGTP-Imp inh	ALR H2O2 inh	Vif A3G	Beta2AR agonist	LANA-H2B inh	HNF4A DNA FP	Calb FLC
CCC1CCCCN1C(=O)c1c[nH]c2ccc(S(=O)(=O)N(C)c3ccc(Cl)cc3)cc2c1=O (stereo not given)	1.4	5	3%	9	5.2	0.4	0
COc1ccc(NC(=O)c2cccc3c2C(=O)N(C2CCCCC2)C3)cc1	2.9	-2	0%	-11	9.8	-0.1	6
Cc1cc(C)cc(OCC(=O)N/N=C/c2ccco2)c1	0.6	-6	6%	10	4.7	-0.1	-8
O=C(NCc1ccc2c(c1)OCO2)c1c(Cl)cccc1Cl	0.4	2	·	2	-0.9	3.7	-10
CCN(CC(=O)NCCc1ccccc1)S(=O)(=O)c1ccc(C)cc1	-0.1	-10	-3%	-2	1.0	3.0	5
O=C(Nc1ccccc1N1CCCC1)c1ccco1	1.9	43	-3%	1	5.0	-2.7	·
Cc1c(C(=O)N2CCN(c3ncccn3)CC2)oc2ccc(F)cc12	·	-3	1%	-10	-4.5	3.2	·
c1c2c(cc3sc(N4CCCCC4)nc13)OCO2	6.5	99*	1%	1	-1.2	1.3	11
CCCCCOc1ccc(Cl)cc1CN1CCOCC1	4.7	-3	2%	-7	-2.5	-3.2	0
COc1ccccc1N1CCN(C(=O)c2cc3c(-c4ccc(Cl)cc4)nn(C)c3s2)CC1	0.4	-109	1%	3	1.2	0.8	9
O=C(CC(=O)N/N=C/c1ccc(O)cc1)N/N=C/c1ccc(O)cc1	4.4	99*	-2%	0	2.7	5.9	2
CN(Cc1ccc(F)cc1)C(=O)c1cc(COc2ccc(F)cc2F)on1	4.1	-6	2%	5	-6.1	-1.1	19
COc1ccc(CCC(=O)NCC(=O)OCc2ccccc2)cc1	-1.7	2	-5%	9	-0.9	0.0	2
CC1(c2nnc(-c3ccncc3)o2)CC(c2cccnc2)=NO1 (stereo not given)	0.8	-12	·	-7	-5.3	-2.1	-10
CC(=O)N1N=C(c2ccncc2)OC12CCCC2	?	1	-7%	-2	3.1	0.9	-2
COc1cc(C(=O)NCCNC(=O)C2CCCNC2=O)cc(OC)c1OC (stereo not given)	-1.5	·	?	4	2.6	0.1	7
COc1ccccc1OCC(=O)Nc1cccc(N(C)S(C)(=O)=O)c1	2.0	-1	9%	3	-1.8	-0.8	-3
CC(Nc1nc(N2CCCC2)nc2ccccc12)c1ccccc1 (stereo not given)	2.8	-1	-4%	-6	3.4	-1.9	-2
CCOc1ccc(Nc2nc(N)nc(CCl)n2)cc1	5.5	10	8%	26	-2.3	-3.4	4
Cc1ccc(C2=NS(=O)(=O)N(C)C(C(=O)Nc3ccc4c(c3)OCO4)=C2)cc1	-1.0	-11	·	-3	3.1	-3.5	6
O=C1C(=O)N(CCO)C(c2ccccc2[N+](=O)[O-])/C1=C(\O)c1ccccc1 (stereo not given)	-0.8	-10	0%	18	-2.2	0.6	-3
O=C(O)c1ccc2c(c1)C(=O)N(Cc1ccccc1)C2=O	-1.1	2	3%	0	3.9	2.7	23
CCc1ccc(OCc2nnc(SCC(=O)N3CCN(c4ccccc4)CC3)o2)cc1	3.7	-10	-2%	0	-1.1	0.2	5
O=C(c1cccc(S(=O)(=O)N2CCCC2)c1)N1CCOCC1	·	6	72%	6	-3.3	-1.1	·
CCOc1cc(CNCCCN2CCOCC2)cc(Cl)c1OCC(=O)NC(C)(C)C	-1.1	-9	·	-4	0.0	7.0	-10
Cc1cc(-c2ccccc2)nc2c(Br)c(C(=O)O)nn12	0.9	-15	·	6	-0.3	-14	0
COc1cc(OC)cc(C(=O)N[C@H](C(=O)NCc2ccco2)C(C)C)c1	1.9	6	6%	-2	-2.0	-1.4	6
CCCCCCNC(=O)C(C#N)c1nc2ccccc2nc1N1CCCC1 (stereo not given)	24*	40	-22%&8%	-3	155*	37	-10
O=C(NCc1ccccn1)c1nc(-c2ccc(C(F)(F)F)cc2)no1	0.9	-8	-12%	-1	1.5	3.6	-7
CS(=O)(=O)N(Cc1ccccc1)c1ccc(C(=O)NCc2ccccc2)cc1	?	3	25%	3	5.7	-3.7	17
O=C(CC12CC3CC(CC(C3)C1)C2)NC(=S)N1CCCCC1	2.1	1	·	-3	1.9	-1.9	-35
Cc1cc(NCc2ccco2)n2ncnc2n1	0.0	-2	·	-3	7.2	2.3	7
C[C@H](NC(=O)[C@@H]1Cc2ccccc2CN1)C(=O)Nc1ccc2c(c1)OCO2	-1.9	-15	·	-6	6.3	-2.6	5
COCCCNc1oc(-c2ccccc2F)nc1C#N	3.0	-5	-2%	0	3.7	1.8	2
O=C(c1ccco1)N1CCN(c2ccc(S(=O)(=O)N3CCCC3)cc2)CC1	2.2	-3	2%	12	-10	-2.2	-23
Cc1ccc(Cn2ccc(NC(=O)c3cc(C(C)C)on3)n2)cc1	-0.4	-13	2%	-6	-1.4	1.2	3
CCn1cc(C(=O)NCc2ccccc2)c(=O)c2cc(F)c(N3CCN(C(=O)c4ccco4)CC3)cc21	-0.8	·	-29%	0	1.1	1.8	14
O=C1Nc2ccc(S(=O)(=O)NCCC3=CCCCC3)c3cccc1c23	?	-41	4%	2	3.3	-3.0	8
COc1cccc(-c2cc(C(=O)Nn3cnnc3)c3ccccc3n2)c1	-3.2	-15	13%	5	4.1	0.7	-8
COc1cccc(-c2csc(N3CCN(C(=O)Nc4ccccc4OC)CC3)n2)c1	5.5	6	3%	-1	-1.6	3.4	-30
Cc1ccc(S(=O)(=O)N2CCOCC2)cc1C(=O)OCC(=O)c1c(N)n(C)c(=O)n(C)c1=O	·	·	·	4	-1.1	-4.0	·
O=C(c1cccs1)N1CCCC(c2nc3c(nnn3Cc3ccccc3Cl)c(=O)[nH]2)C1 (stereo not given)	-3.5	3	?	0	-0.1	2.3	-15
Oc1ccccc1N1CCN(c2ncnc3sc(-c4ccccc4)cc23)CC1	3.1	2	·	7	-3.1	3.6	13
COc1ccc(C(C#N)=C2C=CC(=NO)C=C2)cc1	-1.6	96*	5%	4	-3.2	3.5	2
CCOC(=O)c1ccc(-n2c(C)nc3c(cnn3-c3ccccc3Cl)c2=O)cc1	-0.6	-11	18%	-2	-1.4	0.0	-2
Cc1cc(C(F)F)n2nc(C(=O)Nc3ccccc3Br)nc2n1	4.3	-6	?	-13	1.3	2.8	-15
CCOC(=O)N1CCN(C(=O)CCCn2nnnc2CN2CCC(C)CC2)CC1	1.9	-22	·	1	2.5	2.6	2
CC(=O)Nc1ccc(NC(=O)CSc2nc3nc(-c4cccs4)cc(C(F)(F)F)c3c(=O)[nH]2)cc1	-5.9	99*	25%	-1	0.1	-0.8	-3
CC(=O)c1cccc(Nc2nc(=O)c3cccnc3s2)c1	-4.2	-7	-1%	-14	1.8	0.1	-5
CCC(=O)N1CCc2cc(Br)cc(S(=O)(=O)N(C)c3ccc(OC)cc3OC)c21	-0.2	-23	·	-14	2.0	2.2	-6
COc1ccc(C(=O)Nc2ccc(C(=O)N3CCCCC3)cc2)cc1OC	-0.1	-5	·	7	-2.8	-9.3	-11
O=C(Nc1ccc(Cl)cn1)c1ccccc1SCc1ccccc1	?	3	-5%	9	2.0	-4.6	-12
O=C(Nc1nnc(S(=O)(=O)N2CCCCCC2)s1)c1cccc(Br)c1	-2.0	·	·	6	-2.4	-2.3	5
COc1cc(-c2nc3ccccn3c2/N=C/c2cc(OC)c(OC)c(OC)c2)ccc1O	1.3	?	·	0	3.9	-0.1	11
Cc1oc(C)c(C(=O)O)c1C(=O)O	?	0	0%	-1	4.9	-1.1	-9
C=CCn1c(SCC(=O)N2CCc3ccccc3C2)nc2ccccc2c1=O	8.2	0	10%	-3	4.0	2.6	8
Cc1oc(-c2ccccc2F)nc1CS(=O)(=O)CC(=O)N1CCc2ccccc21	·	0	3%	-4	5.2	-1.8	·
Cn1c(-c2ccc([N+](=O)[O-])cc2)nc2ccccc21	-2.1	-19	8%	5	-8.1	2.4	-3
Cc1cc(/C=C2\SC(=S)NC2=O)c(C)n1C1CC1	8.3	?	31%	11	2.0	56*	-2
O=C(/C=C/c1ccco1)NCC(=O)N/N=C/c1ccc(Cl)cc1	?	39	6%	-2	-2.3	6.7	7

Profiles, quoted from the list:
`COCCCNc1oc(-c2ccccc2F)nc1C#N` in the list: RanGTP-Imp inh: 3.0; ALR H2O2 inh: -5; Vif A3G: -2%; Beta2AR agonist: 0; LANA-H2B inh: 3.7; HNF4A DNA FP: 1.8; Calb FLC: 2
`C[C@H](NC(=O)[C@@H]1Cc2ccccc2CN1)C(=O)Nc1ccc2c(c1)OCO2` in the list: RanGTP-Imp inh: -1.9; ALR H2O2 inh: -15; Vif A3G: ·; Beta2AR agonist: -6; LANA-H2B inh: 6.3; HNF4A DNA FP: -2.6; Calb FLC: 5

Following part
SMILES	RanGTP-Imp inh	ALR H2O2 inh	Vif A3G	Beta2AR agonist	LANA-H2B inh	HNF4A DNA FP	Calb FLC
O=C(CSCc1cnn(-c2ccccc2)c1-n1cccc1)NCc1cccnc1	5.5	-2	-11%	1	-6.2	0.5	-1
CCCc1cc(=O)oc2c(CN3CCCC3)c(O)ccc12	8.9	1	-3%	-2	2.8	-1.3	5
COc1ccc(-c2cn[nH]c2-c2ccc(OCc3ccccc3)cc2O)cc1	0.3	2	0%	15	1.3	-1.6	-7
CCOc1ccccc1N1CC(C(=O)Nc2c(C)n(C)n(-c3ccccc3)c2=O)CC1=O (stereo not given)	?	7	-7%	-3	-0.1	1.6	13
CCn1ccnc1CNC(=O)CC1C(=O)NCCN1Cc1ccccc1F (stereo not given)	-1.8	-9	10%	2	-7.3	-6.1	1
COc1ccccc1C=NNC(=O)c1ccccc1OCCOc1ccccc1	·	-12	·	25	2.4	-1.2	·
Cc1ccccc1-n1c(C)cc(/C=N/NC(=O)c2ccncc2)c1C	-3.8	10	5%	2	0.5	-2.0	-1
O=C1OC(c2ccc(Cl)cc2)=C/C1=C/c1cccnc1	3.6	1	1%	-1	-1.8	-0.9	-6
CC(=O)Nc1ccc(S(=O)(=O)NCCC(=O)NCCOc2ccccc2)cc1	·	·	·	-4	-6.2	-1.7	·
CCCCCCSc1ncc(C#N)c(N)n1	-0.8	-5	11%	0	9.0	3.0	-12
CCCN(CC(=O)Nc1ccccc1OC)C(=O)c1nc2nc(C)ccn2n1	·	-16	·	-4	0.8	-3.9	·
NS(=O)(=O)c1cccc(NC(=O)CSc2ncc(C(F)(F)F)cc2Cl)c1	5.0	-8	23%	6	4.1	2.4	-4
CC(C)c1ccc(NC2(C#N)C(=O)Nc3ccccc32)cc1 (stereo not given)	1.5	8	-4%	-6	0.9	-1.3	-11
Cc1ccc2[nH]c(=O)c(CN(CCO)C(=O)NCc3ccccc3)cc2c1	-1.2	-1	·	-6	0.3	-0.5	28
Cn1c(=O)c2c(nc(CCc3ccccc3)n2C)n(C)c1=O	·	·	17%	-7	·	2.1	·
COCc1ccc(CN2CCC(C(=O)Nc3cccc(-c4cscn4)c3)CC2)o1	21	-3	6%	-1	1.4	4.4	-3
CC(C)[C@H]1C(=O)Nc2ccccc2N1C(=O)N[C@@H](Cc1ccccc1)C(=O)N[C@@H](Cc1ccccc1)C(=O)O	2.3	·	·	1	-0.8	3.7	-3
CC(C)CCn1cnc2c1c(=O)n(C)c(=O)n2C	1.6	·	3%&-8%	-2	-5.0	0.5	-2
